NS1 inh – qHTS Assay for Inhibitors of Influenza NS1 Protein Function. S. cerevisiae slowed by influenza A NS1, growth recovery by OD600. Potency, µM (series often up to 46.1 µM), inactives show top-dose activity, positive = more growth. 270,000 compounds, 0.4% hits; further: actives are rising curves; nearly all actives have a fitted effect of over 50% in size
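Read-out: OD600 growth recovery of NS1-expressing budding yeast. Cells grown overnight at 30C in -URA glucose medium, washed, resuspended and diluted 1:100 in 2% galactose assay medium, pH 6.0. Same strain lacking NS1 served as positive control.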
StopGo reporter – High Throughput Screening for Foot and Mouth Disease Virus Antivirals. Potency, µM (top dose mostly 57.9 µM), for inactives: at the top dose signal change, negative = less light. human cells with a luciferase reporter of 2A StopGo recoding; control for the full effect not named in the record. 410,000 compounds, 1.2% hits; active = well fitted falling curve with a large enough effect; inconclusive = small, poorly fitted or top-dose-only effect; inactive = no such curve, though single readings can be large or run the other way; tested in HEK293T cells; further: on the % scale 0 is the no-effect control and ±100 the full control effect; nearly all actives have a fitted effect of over 45% in size; luciferase light after 4 h
Marburg entry inh – qHTS for inhibitors of binding or entry into cells for Marburg Virus. 300,000 compounds, 1.8% hits. Potency, µM (titrated, usually from 37.8 µM), inactives show top-dose activity change, negative = inhibition, most hits filed as inhibitors. Marburg virus pseudotyped entry inhibition, cell reporter; control for the full effect not named in the record; about a third of the inactives were read at about 46 µM; active = well fitted inhibition curve with a large enough effect; inconclusive = small, poorly fitted or top-dose-only effect, or effect the other way; inactive = flat fitted curve, though single readings scatter; tested in HEK293 cells; about a fifth of its hits are not listed in these tables; further: on the % scale 0 is the no-effect control and ±100 the full control effect; luciferase read-out
Cruzain noTriton – qHTS Assay for Promiscuous and Specific Inhibitors of Cruzain (without detergent); Cruzipain (Trypanosoma cruzi), P25779; purified cruzain, Z-FR-AMC fluorescence, no detergent; Potency, µM, without a hit: max response, negative = inhibition, hits mostly inhibitors; 200,000 compounds, 2.3% hits; AID 1476, 2009; active means well fitted curve in the direction sought with a large enough effect; inconclusive means small, poorly fitted or top-dose-only effect, or another doubt; inactive means no such curve, though single readings can be large; an effect the other way counts as inactive or inconclusive;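 further: plate controls were enzyme without inhibitor for no effect and buffer without enzyme for full effect; nearly all actives have a fitted effect of over 40% in size; top concentration of the series not given in the record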
Target sequence (P25779 123-467 limits assumed): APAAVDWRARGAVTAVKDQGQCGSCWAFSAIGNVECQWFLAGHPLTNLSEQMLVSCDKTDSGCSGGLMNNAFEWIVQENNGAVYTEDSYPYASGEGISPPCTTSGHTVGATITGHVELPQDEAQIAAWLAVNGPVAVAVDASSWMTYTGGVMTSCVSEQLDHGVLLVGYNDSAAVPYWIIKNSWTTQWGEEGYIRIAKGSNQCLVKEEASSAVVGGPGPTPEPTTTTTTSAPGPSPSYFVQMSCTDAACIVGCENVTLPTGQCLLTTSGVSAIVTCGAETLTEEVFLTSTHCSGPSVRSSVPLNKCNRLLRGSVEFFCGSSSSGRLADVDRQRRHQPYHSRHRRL
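Purified cruzain at 1.5 nM, pre-incubated 15 min with compound at room temperature in 100 mM sodium acetate pH 5.5, 5 mM DTT, 0.00005% Triton X-100. Reaction started with 2 uM Z-FR-AMC; AMC fluorescence increase over 60 s gives rate.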
RE007 growth inh – qHTS Assay for Inhibitors of the HIV-1 protein Vpr; S. pombe RE007 Vpr strain, BacTiter-Glo ATP luminescence, 24 h; control for the full effect not named in the record; Potency, µM (titrated, usually from 92.2 µM), for inactives: top-dose activity change, negative = less growth; 360,000 compounds, 0.21% hits; AID 651644, 2012; active = well fitted falling curve with a large enough effect; inconclusive = small, poorly fitted or top-dose-only effect; inactive = no such curve, though single readings can be large or run the other way;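 further: on the % scale 0 is the no-effect control and ±100 the full control effect; nearly all actives have a fitted effect of over 50% in size; the assay follows cell death caused by Vpr and the record does not say whether a fall means rescue or toxicity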
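Fission yeast strain RE007, carrying one chromosomally integrated HIV-1 vpr copy, was seeded at OD 0.01 in PMG+AL medium with 23 nL pinned compound. After 24 h at 30 °C and 99% humidity, viability was read by BacTiter-Glo luminescence.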
Cruzain inh Det – qHTS Assay for Promiscuous and Specific Inhibitors of Cruzain (with detergent); Cruzipain (Trypanosoma cruzi), P25779; purified cruzain, Z-FR-AMC fluorescence, 0.01% Triton; Potency, µM, inactives show max response, negative = inhibition, actives largely listed as inhibitors; 200,000 compounds, 0.43% hits; AID 1478, 2009; active means well fitted curve in the direction sought with a large enough effect; inconclusive means small, poorly fitted or top-dose-only effect, or another doubt; inactive means no such curve, though single readings can be large; an effect the other way counts as inactive or inconclusive;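 further: plate controls were neutral wells for no effect and buffer without enzyme for full effect; nearly all actives have a fitted effect of over 40% in size; top concentration of the series not given in the record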
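Compounds were screened in titration against cruzain (1.5 nM) with 0.01% Triton X-100 to counter colloidal aggregation. Activity was the AMC fluorescence increase over 60 s after adding 2 uM Z-FR-AMC at pH 5.5.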
SARS PLP yeast – qHTS of Yeast-based Assay for SARS-CoV PLP; S. cerevisiae expressing SARS-CoV PLpro, growth rescue; control for the full effect not named in the record; Potency, µM (series often up to 32.9 µM), for inactives: at the top dose activity, positive = growth rescue; 330,000 compounds, 0.19% hits; AID 485353, 2010; further: 0% is about no effect; nearly all actives have a fitted effect of over 55% in size; growth read by luminescence after 48 h
LASV entry inh – qHTS for Inhibitors of binding or entry into cells for Lassa Virus | Potency, µM (titrated, usually from 37.9 µM), for inactives: at the top dose activity change, negative = inhibition, usual class: inhibitors | Lassa virus pseudotype entry inhibition, cell reporter; control for the full effect not named in the record | 300,000 compounds, 1.2% hits | AID 540256, 2011; active means well fitted inhibition curve with a large enough effect; inconclusive means small, poorly fitted or top-dose-only effect, or effect the other way; inactive means flat fitted curve, though single readings scatter; tested in HEK293 cells; further: on the % scale 0 is the no-effect control and ±100 the full control effect; nearly all actives have a fitted effect of over 50% in size; luciferase read-out
* hit, by the source's call; ? = inconclusive; / = no result given; & = joins results of further samples; [ ] = remark or other dose. Unless noted, the call rests on the fitted dose curve; in most records, active means well fitted rising curve with a large enough effect; inconclusive means small, poorly fitted or top-dose-only effect; inactive means no such curve, though single readings can be large or run the other way. Potency means the concentration at half of the fitted maximal effect.

SMILES	NS1 inh	StopGo reporter	Marburg entry inh	Cruzain noTriton	RE007 growth inh	Cruzain inh Det	SARS PLP yeast	LASV entry inh
CC(=O)N1c2ccccc2CCc2ccc([N+](=O)[O-])cc21	14%	-6%	/	/	16%	/	10%	/
CCN(CC)C(=O)c1ccc(S(=O)(=O)c2ccccc2)cc1	?	-8%	?	/	2%	/	3%	?
CCOC(=O)c1c(C)[nH]c(C)c1S(=O)(=O)N(C)CC(=O)NCc1cccc(C)c1	-2%	0%	-1%[46.1 µM]	/	-10%	/	3%	8%[46.1 µM]
CCOC(=O)C1=C(C)Nc2ccccc2N=C1N	4%	3%	?	/	45%	/	-2%	-5%
Cc1no[n+]([O-])c1COc1cccc(/C=C2\N=C(c3ccccc3)OC2=O)c1	13%	-1%	6%	?	15%	?	15%	-6%
CC(C)n1c(=S)[nH]c2ccccc2c1=O	-53%	9%	-7%	-1%	10%	-2.5%	4%	-9%
O=S(=O)(NCC1CCCO1)c1ccc(-c2ccc(Cl)cc2)cc1 (stereo not given)	/	37%[activator]	?	/	-1%	/	-1%	?
CCc1ccc(-n2nnc(-c3nc(-c4cccs4)no3)c2N)cc1	/	17%	/	1%	/	0.7%	/	?
CCOC(=O)Cc1csc(NS(=O)(=O)c2cc(Cl)ccc2Cl)n1	26%	-7%	?	/	14%	/	6%	-7%
CCc1ccc(NC(=O)/C(C#N)=C\c2ccc(OC)c(C(=O)O)c2)cc1	0%	-2%	-3%[46.1 µM]	/	6%	/	0%	-12%
Clc1ccc(CN2CCCCCCC2)cc1Cl	-7%	-10%	11%	-13%	?	-1.4%	7%	-6%
O=C(Nc1ccc2oc(-c3cccnc3)nc2c1)c1ccc2c(c1)OCCO2	8%	-3%	-31%[46.1 µM]	/	10%	/	0%	-14%[46.1 µM]
O=C(NCc1ccco1)/C(=C/c1ccc([N+](=O)[O-])cc1)NC(=O)c1ccco1	2%	4%	5%[46.1 µM]	/	9%	/	-2%	-11%
O=C(COC(=O)/C=C/c1ccc(Cl)cc1)NCCc1ccccc1	3%	-3%	8%[46.1 µM]	-10%	-3%	5.8%	-6%	?
COc1ccc(CCNC(=O)Cn2nc(C)c3c(C)n(-c4ccccc4)nc3c2=O)c(OC)c1	14%	-24%	/	/	1%	/	18%	/
CC(C)(C)C(=O)N1CCN(CCN2C(=O)c3cccc4cccc(c34)C2=O)CC1	11%	-5%	8%	/	3%	/	3%	?
COc1ccc(Cl)cc1NC(=O)c1cnc(N2CCCCC2)c2ccccc12	/	-26%	/	-3%	/	-1.0%	/	-19%[46.1 µM]
Cc1ccc(-c2noc(C3CCN(C(=O)Nc4ccc(C#N)cc4)CC3)n2)o1	-19%	-22%	6%	-15%	-18%	-2.6%	-5%	?
Cc1c(NC(=O)c2ccc(N(C)S(C)(=O)=O)cc2)c(=O)n(-c2ccccc2)n1C	/	-7%	-8%[46.1 µM]	/	-2%	/	1%	18%
COc1ccc(C(=O)NN(c2ccccc2)c2ccccc2)cc1	5%	3%	1%	?	2%	-1.7%	-4%	?
CCOC(=O)Nc1c(O)ccc2oc(C)c(-c3ccccc3)c12	-36%	-43%	1%	2%	2%	-1.3%	0%	-7%
Nc1cc(C(=O)OCC(=O)NNC(=O)c2cccs2)ccc1Cl	/	-11%	-2%	/	-9%	/	-2%	?
CCOC(=O)N1CCN(C(=O)c2noc(C(C)C)c2[N+](=O)[O-])CC1	-14%	-18%	10%	6%	7%	1.0%	-2%	1%
Cc1ccc(C)c(CN2C(=O)C3CCCN3c3ccc(C#N)cc32)c1 (stereo not given)	24%	6%	3%	16µM*	3%[3.69 µM]	-5.4%	6%	-2%
C=CCNc1nc(NCc2ccccc2)nc(OCC)n1	-14%	0%	/	/	-8%	/	6%	/

Grouped by structure, those above with a Cl atom
SMILES	NS1 inh	StopGo reporter	Marburg entry inh	Cruzain noTriton	RE007 growth inh	Cruzain inh Det	SARS PLP yeast	LASV entry inh
O=S(=O)(NCC1CCCO1)c1ccc(-c2ccc(Cl)cc2)cc1 (stereo not given)	/	37%[activator]	?	/	-1%	/	-1%	?
CCOC(=O)Cc1csc(NS(=O)(=O)c2cc(Cl)ccc2Cl)n1	26%	-7%	?	/	14%	/	6%	-7%
Clc1ccc(CN2CCCCCCC2)cc1Cl	-7%	-10%	11%	-13%	?	-1.4%	7%	-6%
O=C(COC(=O)/C=C/c1ccc(Cl)cc1)NCCc1ccccc1	3%	-3%	8%[46.1 µM]	-10%	-3%	5.8%	-6%	?
COc1ccc(Cl)cc1NC(=O)c1cnc(N2CCCCC2)c2ccccc12	/	-26%	/	-3%	/	-1.0%	/	-19%[46.1 µM]
Nc1cc(C(=O)OCC(=O)NNC(=O)c2cccs2)ccc1Cl	/	-11%	-2%	/	-9%	/	-2%	?

The listing continues:
SMILES	NS1 inh	StopGo reporter	Marburg entry inh	Cruzain noTriton	RE007 growth inh	Cruzain inh Det	SARS PLP yeast	LASV entry inh
OC(COC(c1ccccc1)c1ccccc1)CN1CCc2ccccc2C1 (stereo not given)	-6%	-13%	?	-8%	8%	-3.8%	6%	-38%[46.1 µM]
COc1ccc(C(=O)/C=C/Nc2ccc([N+](=O)[O-])cc2C)c(OC)c1	-2%	28%	-6%	?	-12%	5.2%	-4%	17%
O=C1c2ccccc2C(=O)N1CCOc1cccc(Br)c1	-7%	43%[activator]	21%	/	3%	/	-4%	?
C=CCn1c(SCc2cc(=O)n3cc(C)ccc3n2)nnc1-c1ccc(F)cc1	-16%	1%	5%	-5%	-9%	-3.7%	5%	4%
O=C(NCCCN1CCOCC1)c1c(F)c(F)c(F)c(F)c1F	16%	-17%	17%	/	9%	/	-4%	-4%
COc1ccc(C2(C(=O)NC3CCCCC3)CCOCC2)cc1OC	6%	-7%	2%	9%	-10%	1.1%	0%	16%
O=C(CSCc1ccccc1)Nc1ccc(F)c(F)c1	-18%	26%	13%	-4%	-18%	-7.9%	-25%	20%
COC(=O)c1nc(N)sc1C(C)C	-4%	4%	8%[46.1 µM]	/	-10%	/	1%	-18%
CCn1c(CCNC(=O)c2ccc(F)cc2)nc2ccccc21	-2%	-9%	1%	2.5µM*	4%	22µM*	6%	/
COc1cc(/C=N/NC(=O)C(Cc2c[nH]c3ccccc23)NC(=O)OCC(C)C)cc([N+](=O)[O-])c1O (stereo not given)	25%	27%	-3%	23%	0%	-19%	10%	?
CSc1nnc(-c2cccc(C)c2)n1N	-4%	-9%	-3%[46.1 µM]	-5%	15%	6.9%	-2%	24%
COc1ccc(N(C)C(=O)C2CCN(S(=O)(=O)c3cc(Br)cc4c3N(C(C)=O)CC4)CC2)cc1	/	-12%	-9%[46.1 µM]	12%	/	-1.8%	/	-11%[46.1 µM]
CCOC(=O)c1c(-c2ccccc2)oc2ccc(OC(=O)N(C)C)cc12	-70%	6%	?	?	12%	-12%	-4%	13%
Cc1ccccc1NC(=O)CSC(=O)c1ccccc1	/	-7%	/	/	13%	/	2%	-18%
CCOC(=O)C1(Cc2ccc(OC)cc2)CCN(S(C)(=O)=O)CC1	2%	5%	-6%[46.1 µM]	/	-9%	/	0%	15%[46.1 µM]
Cc1ccc(-c2nnc(SCC(=O)N/N=C/c3cccs3)n2-c2ccc(C)cc2)cc1	9%	-13%	-1%	8%	-7%	1.8%	6%	-15%
CC(=O)Nc1sc2c(c1C#N)CCCC2	-17%	38%[activator]	20%[46.1 µM]	-8%	-8%	1.7%	/	7%
Cc1cc(OC(=O)c2ccc(F)cc2)c([N+](=O)[O-])c(=O)[nH]1	-16%	2%	/	/	27%	/	1%	/
O=C(O)c1ccccc1NC(=O)c1ccccc1-c1ccccc1C(=O)O	17%	-16%	/	/	12%	/	3%	/
Cc1[nH]n(C2=NCCS2)c(=O)c1N=Nc1cccc(C(F)(F)F)c1	-6%	-18%	/	/	-16%	/	1%	/
O=C(COC(=O)c1ccc(NS(=O)(=O)c2cccs2)cc1O)Nc1nc2ccccc2s1	-2%	?	/	/	2%	/	1%	/
CSc1nnc(C(C)c2ncc(C(F)(F)F)cc2Cl)n1C (stereo not given)	4%	4%	/	/	1%	/	-2%	3%
COc1ccc(CCNc2nc(-c3ccc(F)cc3)c(CC(=O)O)s2)cc1OC	1%	3%	-21%[46.1 µM]	/	-3%	/	-1%	-1%
COc1cc(OC)cc(C(=O)N[C@H](C(=O)NCc2ccc(F)cc2)C(C)C)c1	-1%	-4%	?	/	-5%	/	0%	-20%[46.1 µM]
CCC(Sc1nc(C)cc(=O)[nH]1)C(=O)Nc1nc2c(s1)CCCC2 (stereo not given)	1%	19%	9%	?	-12%	-16%	1%	-6%
COCCCN(C(=O)Nc1ccccc1)C(C)c1ccncc1 (stereo not given)	-10%	2%	/	-9%	-5%	2.5%	-5%	/
O=C(O)c1[nH]c2ccccc2c1NS(=O)(=O)Cc1ccccc1	-11%	17%	-22%	6%	6%	1.8%	6%	2%
Fc1ccc(C(c2nnnn2Cc2ccco2)N2CCN(C3CCCCC3)CC2)cc1 (stereo not given)	-4%	-28%	-5%&-29%	-9%	-1%	5.5%	1%	-5%
COC(=O)c1ccc(OC(=O)c2cccnc2SC)cc1	-13%	5%	15%[46.1 µM]	/	67%	/	1%	-1%

Bioassay records (PubChem)
